Compound activity: PubChem BioAssay, several laboratories
Mtb betalactam: beta-lactam sensitization of Mtb H37Rv | inhibition, % at 25 µM | AID 434955 | 330,000 compounds, 0.27% hits | M. tuberculosis H37Rv growth with meropenem, percent inhibition; hits of this screen are not shown here;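 active means about 74% or more and at least 40 points above the plate without the antibiotic, then above 30% in a dose series; inconclusive means first-round hits that could not be retested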;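 further: growth measured after seven days incubation then overnight dye step; 0% = bacteria only wells and 100% = bacteria with antibiotic; twin plates without the antibiotic show which effects depend on it; some results filed as inactive read as strong as hits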
Mtb H37Rv: M. tuberculosis H37Rv growth inhibitors, H37Rv strain (AID 1626); M. tuberculosis H37Rv growth inhibition; higher % means a stronger effect; inhibition, % at 10 µM, or IC50 in µM where a hit was titrated; 220,000 compounds, 0.95% hits;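 active means confirmed in a dose series; inconclusive means inhibition above 80% but not taken into the dose series; inactive means below 80% or under 30% at every dose of the series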;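 further: bacteria incubated seven days before Alamar blue readout; 0% = bacteria only wells and 100% = bacteria with antibiotic wells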
YopH inh: blocks Yersinia enterocolitica YopH tyrosine phosphatase; inhibition, %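 (about 10 µM by stock and volumes)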; fluorescence Ex485/Em525; AID 898; 140,000 compounds, 0.16% hits;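 active means inhibition of 50% or more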;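 further: controls were vehicle for no effect and minimum signal wells for full effect; inactives centre near -20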
Arbovirus anti: blocks arbovirus infection | arbovirus infection cell-based antiviral screen | inhibition, % at 10 µM | 200,000 compounds, 0.37% hits | AID 1251;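 active means inhibition from about 30%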;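 further: bluetongue infection of BSR cells; cell survival read as ATP light after 72 h; 0% = infected wells without compound and 100% = uninfected wells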
RecA splice inh: blocks M. tuberculosis RecA intein splicing | 290,000 compounds, 0.75% hits | inhibition, %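 (about 9 µM by stock and volumes)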 | AID 2221 | cell-free RecA intein splicing, fluorescence | P9WHJ3; in the data active means inhibition above about 30%; inconclusive means no clear call, values can overlap the other calls;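 further: 0% = vehicle wells and 100% = reference inhibitor control wells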
Target sequence (P9WHJ3 whole entry, looked up, canonical isoform): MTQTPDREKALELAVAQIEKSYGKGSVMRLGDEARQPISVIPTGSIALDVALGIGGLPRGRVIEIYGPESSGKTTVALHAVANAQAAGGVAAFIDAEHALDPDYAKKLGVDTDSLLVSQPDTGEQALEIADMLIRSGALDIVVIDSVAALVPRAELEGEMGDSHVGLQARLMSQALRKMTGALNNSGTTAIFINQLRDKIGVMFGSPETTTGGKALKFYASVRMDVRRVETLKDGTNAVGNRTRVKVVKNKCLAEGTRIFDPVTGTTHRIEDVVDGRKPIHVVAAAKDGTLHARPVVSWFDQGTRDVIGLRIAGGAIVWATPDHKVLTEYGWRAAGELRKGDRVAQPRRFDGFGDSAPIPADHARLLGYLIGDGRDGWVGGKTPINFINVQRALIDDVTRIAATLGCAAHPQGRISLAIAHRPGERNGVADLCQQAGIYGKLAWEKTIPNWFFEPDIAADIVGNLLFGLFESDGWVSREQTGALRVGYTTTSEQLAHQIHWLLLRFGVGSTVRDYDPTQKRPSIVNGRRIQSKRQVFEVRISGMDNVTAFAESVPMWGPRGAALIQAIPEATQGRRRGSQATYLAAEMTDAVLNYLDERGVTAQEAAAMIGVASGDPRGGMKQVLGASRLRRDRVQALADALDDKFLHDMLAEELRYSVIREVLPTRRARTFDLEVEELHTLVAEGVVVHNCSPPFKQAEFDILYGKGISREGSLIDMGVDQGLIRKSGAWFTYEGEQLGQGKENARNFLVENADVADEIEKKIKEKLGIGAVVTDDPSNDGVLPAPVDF
Arbovirus anti repeat: further read-out of Arbovirus anti, marked with its call; inhibition, %; measured here: 10K subset replicate screen; many hits read low in the repeat;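 first of two repeat runs on a subset; 0% = infected and 100% = uninfected wells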
* hit, by the source's call. This is a subset, so the mix of outcomes need not match the whole.

How did COc1ccc(N2CCN(C(=O)COC(=O)Cc3c(F)cccc3Cl)CC2)cc1 do in these assays?
Mtb betalactam: -8; RecA splice inh: -3.2

How did c1ccc(-c2onc3c2CCCC3)cc1 do in these assays?
Mtb betalactam: 0; Mtb H37Rv: -8%; YopH inh: -21; Arbovirus anti: 9; RecA splice inh: 1.5

What do the screens show for `COc1cccc(/C=N/NC(=O)c2ccc(=O)[nH]n2)c1O`?
Mtb betalactam: 1; Mtb H37Rv: -5%; RecA splice inh: -0.9

Results for Cc1onc(-c2ccc(Cl)cc2)c1-c1ccnn1S(=O)(=O)c1ccc(Cl)cc1 ?
Mtb betalactam: 3; Mtb H37Rv: 9%; RecA splice inh: 1.6

Results for CCCC(c1nnnn1CS(=O)(=O)c1ccc(C)cc1)N1CCN(CC)CC1 (stereo not given) ?
Mtb betalactam: 8; Mtb H37Rv: 1%; Arbovirus anti: -8; RecA splice inh: -2.0

What do the screens show for `CCC(=O)OCCn1c(=O)c2cc3c(=O)n(CCOC(=O)CC)c(=O)c3cc2c1=O`?
Mtb betalactam: -14; Mtb H37Rv: -1%; YopH inh: 13; Arbovirus anti: 15

What do the screens show for `Cc1ccc(Oc2ccc(OCC(=O)NC3CCS(=O)(=O)C3)cc2)cc1` (stereo not given)?
Mtb betalactam: 1; RecA splice inh: -0.1

Results for Cc1nc2nc(SCC(=O)c3cccc([N+](=O)[O-])c3)[nH]c2cc1Br ?
Mtb betalactam: -3; Mtb H37Rv: 7%; YopH inh: -17; Arbovirus anti: 15; RecA splice inh: 2.6

Results for CCC1CCCCN1CCCNC(=O)COc1cc(=O)n(C)c2ccccc12 (stereo not given) ?
Mtb betalactam: -10; Mtb H37Rv: -8%; YopH inh: -49; Arbovirus anti: -9; RecA splice inh: -2.0

How did CCCc1cc(=O)oc2cc(C)cc(OC(C)C(=O)NCCCn3ccnc3)c12 (stereo not given) do in these assays?
Mtb betalactam: -7; RecA splice inh: -3.5

What do the screens show for `CC1(C)SC2c3ccccc3C(=O)N2[C@@H]1C(=O)NCc1ccco1` (stereo not given in full)?
Mtb betalactam: -3; Mtb H37Rv: 4%; YopH inh: -36; Arbovirus anti: 8; RecA splice inh: -0.7

How did COC(=O)c1ccccc1NC(=O)C1CCCCC1C(=O)O (stereo not given) do in these assays?
Mtb betalactam: -4; Mtb H37Rv: -9%; YopH inh: 8; Arbovirus anti: 4; RecA splice inh: 3.8

What do the screens show for `N#CC(C(=O)NCc1ccco1)c1nc2ccccc2nc1N1CCOCC1` (stereo not given)?
Mtb betalactam: 100; Mtb H37Rv: 3%; YopH inh: -38; Arbovirus anti: 2; RecA splice inh: 0.3

Results for NC(=O)C1Cc2ccccc2CN1S(=O)(=O)c1ccc(Cl)s1 (stereo not given) ?
Mtb betalactam: -4; RecA splice inh: 0.6

Results for Cc1ccc(-c2noc(CNCCCN(C)C)n2)cc1 ?
Mtb betalactam: -10; Mtb H37Rv: 0%; YopH inh: -47; Arbovirus anti: 2; RecA splice inh: -1.2

How did Cc1c(/C=N/O)c2ccccc2n1C do in these assays?
Mtb betalactam: 88; Mtb H37Rv: 4%; YopH inh: -8; Arbovirus anti: 4; RecA splice inh: -4.3

What do the screens show for `CSc1nc2ccccc2n1CC(=O)Nc1ccccc1`?
Mtb betalactam: -16; Mtb H37Rv: -4%; YopH inh: -9; Arbovirus anti: 0; RecA splice inh: -3.9

How did O=C(CCC(=O)N1CCSc2ccccc21)NCc1cccc(Cl)c1 do in these assays?
Mtb betalactam: -3; RecA splice inh: 2.0

Results for CCOC(=O)CSc1nc2ccccc2n1C(=O)OCC ?
Mtb betalactam: 56; Mtb H37Rv: 6%; YopH inh: -5; Arbovirus anti: 11; RecA splice inh: -3.4

What do the screens show for `O=C(CN1CCc2cc3c(cc2C1)OCCCO3)Nc1cccc([N+](=O)[O-])c1`?
Mtb betalactam: 10; RecA splice inh: -7.3

Results for N/C(=N\OC(=O)CCc1ccccc1)c1ccccc1Cl ?
Mtb betalactam: -4; Mtb H37Rv: 14%; Arbovirus anti: -8; RecA splice inh: 3.0

Results for CCOP(=O)(OCC)C(Nc1cccc(C)c1)c1ccc(F)cc1 (stereo not given) ?
Mtb betalactam: 0; Mtb H37Rv: 1%; YopH inh: -9; Arbovirus anti: 7; RecA splice inh: 1.2

Results for S=c1[nH]nc(-c2ccccn2)n1/N=C/c1ccco1 ?
Mtb betalactam: 7; Mtb H37Rv: -5%

How did Cc1cccc(-n2c(C)nc3ccsc3c2=O)c1 do in these assays?
Mtb betalactam: -5; RecA splice inh: -0.6

What do the screens show for `Oc1ccc(-c2cnc(-c3ccc(O)cc3)nc2)cc1`?
Mtb betalactam: 0; RecA splice inh: -1.1

Results for CC[C@@]12C(=O)N(c3cccc(F)c3)C(=O)N1[C@H](c1cccc(C)c1)[C@@H]1C(=O)N(Cc3ccccc3)C(=O)[C@@H]12 ?
Mtb betalactam: -9; RecA splice inh: 3.3

Results for O=c1c2ccccc2[nH]c(=S)n1-c1ccc2c(c1)OCO2 ?
Mtb betalactam: 5; YopH inh: -43; Arbovirus anti: 2; RecA splice inh: -8.0

How did COc1ccc(-c2n[nH]c(=S)n2N)c(OC)c1 do in these assays?
Mtb betalactam: -8; Mtb H37Rv: -2%; Arbovirus anti: 3; RecA splice inh: -3.6

What do the screens show for `Cc1noc(/C=C/N(C)C)c1S(=O)(=O)N1CCCC(C(=O)NCCC2=CCCCC2)C1` (stereo not given)?
Mtb betalactam: -3; YopH inh: -34; Arbovirus anti: -6; RecA splice inh: 4.6; Arbovirus anti repeat: -13

What do the screens show for `CCc1ccc(N=CC2=C(O)CC(c3ccco3)CC2=O)cc1` (stereo not given)?
Mtb betalactam: 8; Mtb H37Rv: 81%; YopH inh: 11; Arbovirus anti: 6; RecA splice inh: -1.9

Results for Cn1c(=O)c(=O)n(C)c2cc(N3CCOCC3)c(NS(=O)(=O)c3ccc(F)c(Cl)c3)cc21 ?
Mtb betalactam: 4; RecA splice inh: -5.0

What do the screens show for `O=P1(O)C=C(c2ccccc2)NC(c2ccccc2)=C1`?
Mtb betalactam: 2; Mtb H37Rv: -10%; YopH inh: -18; Arbovirus anti: 2; RecA splice inh: -2.2

How did O=C(O)CCCC(=O)Nc1cccc(C(F)(F)F)c1 do in these assays?
Mtb betalactam: -6; Mtb H37Rv: 1%; YopH inh: -21; Arbovirus anti: 15; RecA splice inh: 0.5

How did Cc1ccc(C)c(N2CCN(C(c3ccc(N(C)C)cc3)c3nnnn3C(C)(C)C)CC2)c1 (stereo not given) do in these assays?
Mtb betalactam: 2; Mtb H37Rv: 5%; YopH inh: -7; Arbovirus anti: 1; RecA splice inh: -1.0

How did COC(=O)N/N=C/c1ccc(OC(=O)/C=C/c2ccco2)cc1 do in these assays?
Mtb betalactam: 70; Mtb H37Rv: 10%; RecA splice inh: -1.0

What do the screens show for `Cc1cc(NC(CC(C)C)C(=O)O)nc(Cc2ccccc2)n1` (stereo not given)?
Mtb betalactam: -5; Mtb H37Rv: 2%; YopH inh: -28; Arbovirus anti: 11; RecA splice inh: 0.5

Results for Cc1nn(CC(=O)NCCCN2CCC(N3CCCCC3)CC2)c(=O)c2cc(-c3ccccc3)nn12 ?
Mtb betalactam: -5; RecA splice inh: -1.4

What do the screens show for `O=C1c2ccncc2C(=O)N1CO`?
Mtb betalactam: -2; Mtb H37Rv: 0%; YopH inh: -43; Arbovirus anti: 9; RecA splice inh: 0.3

How did CCn1nnnc1SCC(=O)Nc1ccc(OCc2ccccc2)cc1 do in these assays?
Mtb betalactam: 64; Mtb H37Rv: -2%; YopH inh: 28; Arbovirus anti: -1

Results for O=C(O)c1cccc(-n2cccc2/C=C/[N+](=O)[O-])c1 ?
Mtb betalactam: -6; Mtb H37Rv: -10%; RecA splice inh: -2.0

Results for Cc1ccc(C(=O)N2CCC(C(=O)NCc3ccco3)CC2)cc1 ?
Mtb betalactam: -2; RecA splice inh: -3.7

What do the screens show for `CCOc1cc(/C=N\NC(=O)c2ccc(NC(=O)C(C)(C)C)cc2)ccc1OC(=O)c1cccc(C)c1`?
Mtb betalactam: 6; Mtb H37Rv: -6%; YopH inh: -28; Arbovirus anti: -8; RecA splice inh: 0.1

What do the screens show for `CSc1ccc(C(=O)C2CCCN(C(=O)Cc3nonc3C)C2)cc1` (stereo not given)?
Mtb betalactam: 0; Mtb H37Rv: 0%; Arbovirus anti: 2; RecA splice inh: 6.0

What do the screens show for `Cn1c(SCc2nc(-c3ccc(Br)cc3)no2)nnc1-c1ccco1`?
Mtb betalactam: -2; Mtb H37Rv: -5%; YopH inh: 8; Arbovirus anti: 7; RecA splice inh: -1.0

Results for CCOC(=O)c1c(NC(=O)CN2C(=O)NC3(CCC(C)CC3)C2=O)sc(C(=O)N(C)C)c1C (stereo not given) ?
Mtb betalactam: -4; RecA splice inh: -1.6

What do the screens show for `Cc1ccc(NC(=O)COc2coc(CN3CCc4ccccc43)cc2=O)cc1Cl`?
Mtb betalactam: -13; RecA splice inh: -1.7

Results for Oc1ccccc1C1=Nc2nc3ccccc3n2C(c2ccccc2)C1 (stereo not given) ?
Mtb betalactam: 85; Mtb H37Rv: 66%; YopH inh: 5; Arbovirus anti: 6; RecA splice inh: 7.4

What do the screens show for `CCc1ccc2oc(C(=O)Nc3cccnc3)c(C)c2c1`?
Mtb betalactam: 32; RecA splice inh: -0.6

How did CCc1ccc(NC(=O)CCn2c(=O)oc3ccccc32)cc1 do in these assays?
Mtb betalactam: -5; Mtb H37Rv: -5%; YopH inh: -55; Arbovirus anti: 0; RecA splice inh: 1.2

What do the screens show for `N#C/C(=C\c1cccnc1)c1ccccc1[N+](=O)[O-]`?
Mtb betalactam: 6; RecA splice inh: 14

How did O=C(CCc1ccccc1)Nc1ccc2c(c1)OCO2 do in these assays?
Mtb betalactam: 5; RecA splice inh: -0.5

Results for COc1ccc(CC(=O)NCc2n[nH]c(=S)n2-c2ccccc2OC)cc1 ?
Mtb betalactam: -2; Mtb H37Rv: 1%; Arbovirus anti: -6

What do the screens show for `O=C(O)COc1ccc(Cl)cc1CO`?
Mtb betalactam: -1; Mtb H37Rv: -4%; YopH inh: -162; Arbovirus anti: 2; RecA splice inh: 0.6

What do the screens show for `COCc1cc(C)nc(SCc2ccc(Br)cc2)c1C#N`?
Mtb betalactam: 2; RecA splice inh: 18

Results for Cc1cccc(NNC(N)=S)c1C ?
Mtb betalactam: 100; Mtb H37Rv: inconclusive; Arbovirus anti: -6; RecA splice inh: -0.7

How did CC1(C)Cc2c(sc3nnn(Cc4ccccc4)c(=O)c23)CO1 do in these assays?
Mtb betalactam: 8; Mtb H37Rv: 9%; YopH inh: -33; Arbovirus anti: 11; RecA splice inh: 2.3

Results for O=C(CSCc1c(F)cccc1Cl)NCC1CCCO1 (stereo not given) ?
Mtb betalactam: 5; Mtb H37Rv: -5%; YopH inh: -12; Arbovirus anti: -5; RecA splice inh: -4.1

What do the screens show for `CCC(=O)Nc1cccc(NC(=O)CSc2nnc(C(C)C)n2CC)c1`?
Mtb betalactam: 2; Mtb H37Rv: 5%; YopH inh: -47; Arbovirus anti: 4

How did O=C(c1cc2ccccn2n1)N1CCCC1 do in these assays?
YopH inh: -32; Arbovirus anti: 9; Arbovirus anti repeat: 0

Results for CCCCC(=O)Nc1ccc(N2CCN(C(=O)c3ccco3)CC2)cc1 ?
Mtb betalactam: -24; RecA splice inh: -3.9

What do the screens show for `Cc1ccc(-n2nc(C)c(C(C)(O)C(F)(F)F)c2N)cc1` (stereo not given)?
Mtb betalactam: -3; Mtb H37Rv: -3%; YopH inh: -22; Arbovirus anti: 1; RecA splice inh: 1.0

Five entries already listed, sorted by length of the SMILES, ascending:
Results for Cc1cccc(NNC(N)=S)c1C ?
Mtb betalactam: 100; Mtb H37Rv: inconclusive; Arbovirus anti: -6; RecA splice inh: -0.7

What do the screens show for `COCc1cc(C)nc(SCc2ccc(Br)cc2)c1C#N`?
Mtb betalactam: 2; RecA splice inh: 18

How did CC1(C)Cc2c(sc3nnn(Cc4ccccc4)c(=O)c23)CO1 do in these assays?
Mtb betalactam: 8; Mtb H37Rv: 9%; YopH inh: -33; Arbovirus anti: 11; RecA splice inh: 2.3

What do the screens show for `CCC(=O)Nc1cccc(NC(=O)CSc2nnc(C(C)C)n2CC)c1`?
Mtb betalactam: 2; Mtb H37Rv: 5%; YopH inh: -47; Arbovirus anti: 4

Results for COc1ccc(CC(=O)NCc2n[nH]c(=S)n2-c2ccccc2OC)cc1 ?
Mtb betalactam: -2; Mtb H37Rv: 1%; Arbovirus anti: -6
